# Screens as filed in PubChem.
# YopH PTP inh: inhibitors of Yersinia enterocolitica YopH tyrosine phosphatase | fluorescence Ex485/Em525 | inhibition, %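 (about 10 µM by stock and volumes)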 | 140,000 compounds, 0.16% hits | AID 898;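 active = inhibition of 50% or more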;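 note: controls were vehicle for no effect and minimum signal wells for full effect; inactives centre near -20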
# Mtb H37Rv: M. tuberculosis H37Rv growth inhibitors, H37Rv strain (AID 1626) | M. tuberculosis H37Rv growth inhibition; higher % means a stronger effect | inhibition, % at 10 µM; hits with a dose series show IC50 in µM | 220,000 compounds, 0.95% hits;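 active = confirmed in a dose series; inconclusive = inhibition above 80% but not taken into the dose series; inactive = below 80% or under 30% at every dose of the series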;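 note: bacteria incubated seven days before Alamar blue readout; 0% = bacteria only wells and 100% = bacteria with antibiotic wells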
# Arbovirus inh: arbovirus infection inhibition; arbovirus infection cell-based antiviral screen; inhibition, % at 10 µM; 200,000 compounds, 0.37% hits;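 active = inhibition from about 30%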;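 note: bluetongue infection of BSR cells; cell survival read as ATP light after 72 h; 0% = infected wells without compound and 100% = uninfected wells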
# RecA splice inh: blocks M. tuberculosis RecA intein splicing. P9WHJ3. cell-free RecA intein splicing, fluorescence. inhibition, %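 (about 9 µM by stock and volumes)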. 290,000 compounds, 0.75% hits; in the data active = inhibition above about 30%; inconclusive = no clear call, values can overlap the other calls;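 note: 0% = vehicle wells and 100% = reference inhibitor control wells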
# Target sequence (P9WHJ3 whole entry, looked up, canonical isoform): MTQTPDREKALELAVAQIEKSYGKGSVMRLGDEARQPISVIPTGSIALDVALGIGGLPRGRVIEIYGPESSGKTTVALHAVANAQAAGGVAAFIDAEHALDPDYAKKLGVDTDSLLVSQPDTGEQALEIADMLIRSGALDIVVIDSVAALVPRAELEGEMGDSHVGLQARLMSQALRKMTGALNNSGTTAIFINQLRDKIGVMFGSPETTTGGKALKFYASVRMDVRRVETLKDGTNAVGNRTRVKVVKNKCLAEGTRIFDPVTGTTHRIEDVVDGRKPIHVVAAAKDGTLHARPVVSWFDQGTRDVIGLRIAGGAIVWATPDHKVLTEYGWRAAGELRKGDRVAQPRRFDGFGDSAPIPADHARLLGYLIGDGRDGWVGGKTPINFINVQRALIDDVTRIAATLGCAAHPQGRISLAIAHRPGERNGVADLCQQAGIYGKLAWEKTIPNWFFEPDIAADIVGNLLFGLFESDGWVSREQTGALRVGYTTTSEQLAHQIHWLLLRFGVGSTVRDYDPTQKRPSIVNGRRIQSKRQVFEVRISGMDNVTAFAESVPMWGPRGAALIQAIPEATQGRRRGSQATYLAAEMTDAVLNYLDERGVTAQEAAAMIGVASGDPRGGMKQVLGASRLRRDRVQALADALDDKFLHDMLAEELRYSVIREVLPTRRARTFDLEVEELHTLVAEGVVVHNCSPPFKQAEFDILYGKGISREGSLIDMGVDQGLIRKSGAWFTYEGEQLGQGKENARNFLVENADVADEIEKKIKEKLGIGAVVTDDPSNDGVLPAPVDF
# Mtb betalactam: beta-lactam sensitization of Mtb H37Rv; M. tuberculosis H37Rv growth with meropenem, percent inhibition; hits of this screen are not shown here; inhibition, % at 25 µM; 330,000 compounds, 0.27% hits; AID 434955;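 active = about 74% or more and at least 40 points above the plate without the antibiotic, then above 30% in a dose series; inconclusive = first-round hits that could not be retested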;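 note: growth measured after seven days incubation then overnight dye step; 0% = bacteria only wells and 100% = bacteria with antibiotic; twin plates without the antibiotic show which effects depend on it; some results filed as inactive read as strong as hits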
# Arbovirus inh repeat: second read-out of Arbovirus inh, no call of its own (marks repeat the call); inhibition, %; measured here: 10K subset replicate screen; many hits read low in the repeat;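 first of two repeat runs on a subset; 0% = infected and 100% = uninfected wells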
# Starred values were filed as active, the others as inactive; ? = inconclusive; nt = no result given.
SMILES,YopH PTP inh,Mtb H37Rv,Arbovirus inh,RecA splice inh,Mtb betalactam,others
Cn1nc(C(F)(F)F)c2cc(C(=O)N3CCOCC3)sc21,nt,3%,2,2.3,-2,
Cc1ccc([N+](=O)[O-])cc1-c1ccc(/C=C(\C#N)c2[nH]nc(N)c2C#N)o1,-18,66%,-11,nt,3,
O=C(CSc1ccc(F)cc1)Nc1ccc(C2SCCS2)cc1,nt,23%,nt,0.6,49,
O=C1C=C(Nc2ccccc2)c2ccccc2C1=O,nt,12µM*,-22,70*,nt,
CCOC(=O)c1c(C)[nH]c(C)c1S(=O)(=O)N1CCCCC1,nt,nt,nt,-2.9,0,
CC1CCCC(C)N1C(=O)COC(=O)c1cc(-c2cccs2)nn1-c1ccccc1 (centres undefined),nt,nt,nt,2.9,96,
O=C(NC12CC3CC(CC(C3)C1)C2)N1CC2Cc3cccc(=O)n3C(C2)C1 (centres undefined),-32,-11%,0,3.9,5,
Cc1cc(NCC2CCCO2)n2c(nc3ccccc32)c1C#N (centres undefined),-2,-3%,-2,-132,-17,
Cn1nnc2c(N3CCCCC3)nccc21,-33,0%,7,1.0,-5,
Cc1noc(C)c1C(=O)N(C)Cc1ccccc1,nt,-8%,nt,-0.1,-2,
C/C(=C\C(=O)c1ccc(C)cc1)Nc1ccc(N2CCOCC2)cc1,-32,-5%,-1,nt,nt,
O=C(CSc1nc2ccccc2c(=O)[nH]1)c1ccccc1,-9,1%,-1,1.4,3,
COc1ccc(NC(=O)Cn2nnc(C(=O)NCCc3ccccc3)c2N)c(OC)c1,nt,nt,nt,-1.1,4,
COC(=O)Cc1ccc(NC(=S)NCc2cccc(OC)c2)cc1,nt,8%,5,0.5,-2,
COc1ccc(CNCc2ccc(F)cc2)c(OC)c1,nt,nt,nt,1.2,-3,
C(=N\N1CCN(Cc2ccccc2)CC1)/c1ccccc1,nt,4%,nt,-1.1,0,
NS(=O)(=O)c1ccc(CCNC(=O)COC(=O)CC(c2ccccc2)c2ccccc2)cc1,nt,1%,10,2.6,-3,
C=CCCC(=O)N1CCC(n2nccc2NC(=O)CCCc2ccccc2)CC1,nt,nt,nt,3.6,-5,
CC(C)NC(=O)c1c(O)c2ccccc2[nH]c1=O,-27,-3%,16,3.4,2,
O=C(Nc1cc(C(F)(F)F)ccc1Cl)c1cccc(N2C(=O)CCC2=O)c1,nt,nt,nt,1.9,-7,
OCCNc1cc(Cl)ncn1,nt,-2%,nt,-1.9,4,
CC1CCc2sc(C(=O)Nc3nnc(SCc4ccc(F)cc4)s3)cc2C1 (centres undefined),-6,-3%,1,0.0,41,
COC(=O)c1ccccc1NCc1cc(=O)oc2cc(O)c(O)cc12,nt,nt,nt,-1.3,1,
COc1ccccc1C(=O)N/N=C(\C)CC(=O)Nc1ccccn1,nt,nt,nt,1.7,-6,
COc1ccc(N2CCN(C(=O)c3ccc(NS(=O)(=O)c4ccc(F)c(F)c4)cc3)CC2)cc1,-18,3%,4,-6.1,2,

# The last six records of the part before open the next one.
SMILES,YopH PTP inh,Mtb H37Rv,Arbovirus inh,RecA splice inh,Mtb betalactam,others
O=C(Nc1cc(C(F)(F)F)ccc1Cl)c1cccc(N2C(=O)CCC2=O)c1,nt,nt,nt,1.9,-7,
OCCNc1cc(Cl)ncn1,nt,-2%,nt,-1.9,4,
CC1CCc2sc(C(=O)Nc3nnc(SCc4ccc(F)cc4)s3)cc2C1 (centres undefined),-6,-3%,1,0.0,41,
COC(=O)c1ccccc1NCc1cc(=O)oc2cc(O)c(O)cc12,nt,nt,nt,-1.3,1,
COc1ccccc1C(=O)N/N=C(\C)CC(=O)Nc1ccccn1,nt,nt,nt,1.7,-6,
COc1ccc(N2CCN(C(=O)c3ccc(NS(=O)(=O)c4ccc(F)c(F)c4)cc3)CC2)cc1,-18,3%,4,-6.1,2,
COc1ccc(NC(C)=O)cc1NC(=O)CN1CCN(CC(=O)Nc2ccccc2Cl)CC1,-34,5%,-11,0.4,-2,
CCn1cc(CNC(=S)Nc2cccc3ccccc23)cn1,nt,-5%,6,-3.9,-3,
O=C(C1CC(c2ccccc2O)=NO1)N1CCc2ccccc2C1 (centres undefined),5,12%,-3,1.7,-7,
O=C(NC(c1ccccc1)c1ccccn1)c1cccc([N+](=O)[O-])c1 (centres undefined),nt,2%,0,-2.0,3,
COc1ccccc1CNC(=O)C1Cc2cc(S(=O)(=O)N3CCCCC3)ccc2N1C(C)=O (centres undefined),nt,nt,nt,-0.1,-7,
Cc1ccc(C)c(CNC(=O)Nc2ccccc2)c1,nt,nt,nt,3.2,1,
CC(C)CCCN1CCN=C1N(C)C,nt,nt,nt,0.9,-2,
CCc1nc2ccccc2[nH]c1=O,nt,-2%,nt,4.5,-5,
CC(C)CN(CCCNC(=O)CC1Oc2ccccc2NC1=O)CC(C)C (centres undefined),-16,-8%,18,-1.2,-9,
Cc1cc(-c2nc3ccccc3[nH]2)ccc1N,nt,-3%,-6,-2.3,1,
Cc1ccc(N(C)C(=O)N2CCN(S(=O)(=O)c3ccc(C)cc3)CC2)cc1,nt,-9%,2,1.1,-16,Arbovirus inh repeat=4
CCC1C(=O)NCCN1C(=O)c1ccccc1OC1CCN(S(C)(=O)=O)CC1 (centres undefined),nt,-10%,1,nt,-2,
O=C(c1ccc(S(=O)(=O)Cc2ccccc2F)c([N+](=O)[O-])c1)N1CCCC1,nt,-5%,-1,6.1,3,
CCc1cccc2c1NC(=O)C21OCCO1,nt,nt,nt,-0.1,-10,
COC(=O)C[C@H]1c2cc(F)ccc2S(=O)(=O)N1c1ccc(N(C)C)cc1,nt,9%,nt,-3.7,-20,
NC(=O)C1=C[C@@H](c2ccc(C(F)(F)F)cc2)C[C@@H](OCc2ccc(CO)cc2)O1,nt,-7%,1,1.9,1,
O=C(O)CSCCCC(=O)Nc1ccc(Br)cc1,-40,nt,3,-1.1,-4,
CCCC(=O)NC(=S)Nc1cccc(Cl)c1N1CCCCC1,-7,15%,-28,6.9,31,
Cc1ccc(C(=O)c2cc([N+](=O)[O-])ccc2N2CCCCC2)c(C)c1,-21,5%,-11,15,-1,
CCN(CC)CCCN1C(=O)c2oc3ccccc3c(=O)c2C1c1cc(OC)ccc1OC (centres undefined),-6,-13%,-4,1.0,-4,
Cc1cc(C)cc(NC(=O)C2C3C=CC4(O3)C2C(=O)N(CCCN2CCCC2)C4C(=O)NC2CCCC(C)C2C)c1 (centres undefined),nt,nt,nt,-4.4,-8,
CCn1cc(-c2cc(C(=O)O)c3ccccc3n2)c(C)n1,-27,-7%,2,-3.4,-1,
CCOC(=O)Cc1cc(=O)[nH]c(/N=C(\N)Nc2ccc(OC)cc2)n1,nt,-6%,nt,-0.8,-10,
CN(C)c1ccc(C(CNS(=O)(=O)c2ccc3ccccc3c2)c2c[nH]c3ccccc23)cc1 (centres undefined),-27,13%,-6,0.0,1,
O=C(NC(=S)N1C[C@H]2C[C@H](C1)c1cccc(=O)n1C2)c1ccc(Cl)cc1Cl,nt,nt,nt,6.3,2,

# Next part:
SMILES,YopH PTP inh,Mtb H37Rv,Arbovirus inh,RecA splice inh,Mtb betalactam,others
Cc1ccc(NC(=O)CN(C)Cc2c(O)ccc3ccccc23)cc1,nt,nt,nt,-6.9,6,
CCOC(=O)c1ccc(NC(=S)N(CCCN2CCCCCC2)Cc2ccco2)cc1,-15,63%,8,-0.4,-3,
Fc1ccccc1Cc1noc(CN2CCN(Cc3ccc4c(c3)OCO4)CC2)n1,nt,1%,-7,-1.9,-9,
CCc1cccc2c(C=C(C#N)C#N)cn(CC(=O)N3CCCC3)c12,-41,9%,-11,-4.6,3,
O=C(NCCCN1CCCCCC1)c1ccc(N2CCCC2=O)cc1,-8,-4%,1,-3.8,-15,
COc1cccc(C(=O)N/N=C(\C)c2cccc(NC(=O)c3ccc(F)cc3)c2)c1OC,nt,nt,nt,3.5,5,
CC(=O)c1cccc(NC(=O)C2CCCN(S(=O)(=O)c3cccc4cccnc34)C2)c1 (centres undefined),-43,-9%,2,2.4,0,Arbovirus inh repeat=2
O=C(N/N=C/c1cccc(Oc2ccccc2)c1)c1ccncc1,nt,?,-5,1.9,99,
CCCSc1ncnc2c1oc1ccccc12,-18,9%,-4,nt,-2,
COc1ccc(CCN(C)C(=S)Nc2ccc(SC(F)F)cc2)cc1OC,nt,nt,nt,-14,7,
CC(=O)CCC(=O)OCC(=O)Nc1ccc(SC(F)F)cc1,nt,5%,4,-1.6,56,
CCOC(=O)CN(Cc1ccccc1)S(=O)(=O)c1ccc(NC(C)=O)cc1,-42,-8%,6,-4.2,8,
CCOC(=O)c1c(NC=O)sc2c1CCC2,-22,nt,-4,-4.6,1,
Cc1nn(Cc2ccc(F)cc2)c2sc(C(=O)Nc3nccs3)cc12,-11,3%,-9,-1.5,0,
O=C(CCc1nnc2ccc(N3CCCCC3)nn12)NCc1ccco1,nt,nt,nt,-0.8,0,
COc1cccc(C(C(=O)NC2CCCC2)N(C(=O)c2ccco2)C2CC2)c1OC (centres undefined),-25,-9%,-1,-0.7,0,
CCN(CC)CCCN(Cc1cc2cc3c(cc2[nH]c1=O)OCO3)C(=S)Nc1ccccc1OC,nt,4%,16,-2.9,0,
CCOc1ncccc1C(=O)OCC(=O)N(CC(C)C)C1CCS(=O)(=O)C1 (centres undefined),nt,-3%,16,nt,5,
Cc1cc(C)nc(N2CCC(C(=O)Nc3cccc(C(F)(F)F)c3)CC2)n1,-30,0%,-1,-0.8,-12,
C/C(=C\C(=O)c1ncc(C(F)(F)F)cc1Cl)N(C)C,nt,5%,2,2.6,-3,
Clc1nc2c(-c3ccccc3)nnn2c2ccccc12,nt,13%,nt,-7.0,100,
Cc1cccc(C(=O)N(CC(=O)Nc2sc(C)c(C)c2C(N)=O)C2CCCC2)c1,nt,nt,nt,3.0,7,
CCn1c(=O)n(CC(=O)Nc2cc(OC)ccc2OC)c(=O)c2ccccc21,-46,1%,-2,-1.9,-4,
Clc1ccc(OCCOCCN2CCc3ccccc3C2)c(Cl)c1,0,77%,-21,5.7,?,
COc1cc2nc(N(C)C)nc(N)c2cc1OC,0,-8%,-14,0.2,-1,

# More entries:
SMILES,YopH PTP inh,Mtb H37Rv,Arbovirus inh,RecA splice inh,Mtb betalactam,others
CC(C)CN1CN(Cc2ccccc2)CNC1=S,-17,-1%,11,11,0,
Cc1ccc(S(=O)(=O)N(C)c2ccc(C(=O)NCC3CCCO3)cc2)cc1 (centres undefined),-45,-4%,3,-1.3,9,
CCOC(=O)C=C1CCN(c2ncc(C(F)(F)F)cc2Cl)CC1,-9,0%,-9,6.0,8,
COc1ccc(CC(=O)N(C)CC(=O)Nc2cccc(F)c2)cc1S(=O)(=O)N1CCOCC1,nt,nt,nt,1.5,-18,
CC1(C)Cc2nc3sc(C(=O)O)c(N)c3cc2CS1,nt,0%,-3,-1.8,3,
CCN(C(=O)CN1CCc2ccccc21)c1c(N)n(Cc2ccccc2)c(=O)[nH]c1=O,nt,-7%,6,4.7,0,
O=C(N[C@@H](Cc1ccc(O)cc1)C(=O)O)c1ccncc1,nt,3%,nt,-1.2,2,
CCOc1ccccc1CNC(=O)c1nn(C)c2c1CS(=O)(=O)c1ccccc1-2,nt,nt,nt,-2.8,-10,
Cc1oc(C(N)=O)nc1-c1ccccc1,nt,-5%,nt,2.0,-7,
COc1cc(C(=O)N/N=C/c2ccc3c(c2)c2ccccc2n3C)ccc1O,nt,nt,nt,-0.6,57,
O=C(NCCN1CCOCC1)c1ccc2c(c1)N(Cc1ccccc1)C(=O)c1ccccc1S2,nt,nt,nt,1.2,-3,
COc1ccccc1N=Nc1c(O)[nH]c2ccc(Br)cc12,nt,nt,nt,-1.4,3,
O=C(/C=C/c1ccccc1)Nc1cc(NC(=O)/C=C/c2ccccc2)cc(C(=O)O)c1,nt,nt,nt,3.8,10,
CN1C2C=C3C(C#N)=C(N)C(C#N)(C#N)C(c4ccc(Br)cc4)C3C1CC2 (centres undefined),-4,-8%,12,11,-10,
CCN(CC)C(=O)Oc1ccc2c(c1)O/C(=C\c1ccco1)C2=O,nt,nt,nt,1.8,?,
COC(=O)N/N=C/c1ccc(Oc2ccccc2)cc1,nt,4%,-8,1.2,8,
COc1ccc(C(C(=O)NC2CCCC2)N(Cc2ccc(C)cc2)C(=O)c2ccn[nH]2)cc1OC (centres undefined),-17,-15%,1,1.7,-5,
COc1ccc(C(=O)CC(c2ccccc2)S(=O)(=O)c2ccc(C)cc2)cc1 (centres undefined),-3,-12%,-1,1.5,7,
O=C(O)CCCc1nc(-c2ccc(Cl)cc2)no1,0,-8%,9,-1.3,91,
Cc1ccc(N(CC(=O)O)S(C)(=O)=O)cc1,nt,2%,3,-1.8,2,
Cc1cc(NS(=O)(=O)c2cccc([N+](=O)[O-])c2)no1,nt,nt,nt,-2.9,-7,
CCCOc1ccc(CCCN=C(N)N)cc1Cl,nt,6%,nt,0.1,-15,

# Not all compounds are listed; rates above refer to the full screens.
